Bioassay records deposited in PubChem by several laboratories.
Vif TR-FRET = HIV-1 Vif–A3G interaction blockers – biochemical, TR-FRET, GST-Vif 1-94, biotin-A3G peptide, dose response retest, primary screen (AID 1117319) | 260,000 tested, 0.57% active | TR-FRET GST-Vif / biotin-A3G peptide binding; higher % means a stronger effect; test concentration not given here; strong numbers were not always called active | one-dose inhibition, %; IC50 in µM for titrated hits;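 active means above the screen mean plus three standard deviations and confirmed in dose response; inconclusive means results disagree or hit not tested in dose response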;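 further: Vif residues 1-94 fused to GST binding biotinylated APOBEC3G peptide 110-148; 0% = full assay without inhibitor and 100% = GST in place of GST-Vif; retest series ran down from 100 µM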
ALR H2O2 inh = blocks human ALR sulfhydryl oxidase activity. P55789. purified ALR, DTT oxidation, H2O2 HRP-luminol luminescence. inhibition, % (concentration not given with the values). 290,000 tested, 3.8% active. AID 485317;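 active means mean and each replicate at 75% or more; inconclusive means only one of the two met; inactive means neither met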;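 further: stock transfer was 7.5 nL into about 7.5 µL; 0% = neutral wells and 100% = wells with inactivated enzyme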
RanGTP-Impb inh = inhibitors of RanGTP-importin-beta interaction, primary screen, biochemical, FRET, CFP-Ran, YFP-importin-beta, homogeneous. cell-free CFP-Ran/YFP-importin-beta FRET ratio. 300,000 tested, 1.1% active. inhibition, % (no concentration beside the values);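 active means most replicates above 15%; inconclusive means exactly half above 15%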;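 further: 0% = DMSO wells and 100% = Ran loaded with GDP instead of GTP; wells of about 40 µL received 100 nL stock; the first replicate is given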
B2AR ag = activates human beta-2 adrenergic receptor causing internalization; P07550; Am2.2-beta2AR cells, FAP receptor internalization, flow cytometry; reference of the scale not given here; response, % (no concentration beside the values); 340,000 tested, 0.43% active; AID 504454;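 active means response above a set limit, near 3 SD of response in nonfluorescent compounds, cut at about 42% in these data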;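 further: stock transfer was 100 nL into about 11 µL; a reference agonist was the positive control; negative values mostly stem from fluorescent compounds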
Calb FLC = C. albicans growth modulation with fluconazole; C. albicans CaCi-2 (fluconazole-resistant clinical isolate) + fluconazole, Alamar Blue growth, 48 h; growth inhibition, % (test concentration not listed); 300,000 tested, 0.57% active; AID 1979;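 active means most replicates above 75%; inconclusive means exactly half above 75%; inactive means most below 75%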;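 further: all wells also contain fluconazole at 8 µg/ml as a sub-toxic cotreatment; 0% = median of DMSO wells and 100% = median of geldanamycin control wells; wells of about 8 µL received 7.5 nL stock; the first replicate is given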
HNF4A DNA FP = change in binding of human HNF4 alpha to DNA | P41235 | HNF4a-FITC DNA binding, fluorescence polarization, 1 h | activity change, % at 10 µM | 360,000 tested, 0.3% active; in the data active means activity change above about 30%, passing the limit was not always enough;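 further: controls were the assay level and a saturating level of protein; the project sought stronger binding though the title names inhibitors; some compounds called inactive have numbers as strong as hits; positive values seem to mean higher polarization but the record does not say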
LANA-H2A inh = blocks KSHV LANA binding to histone H2A/H2B. Q9QR71. cell-free LANA-H2A/H2B peptide, fluorescence polarization. inhibition, % (test concentration not listed). 320,000 tested, 0.6% active. AID 2629; in the data active means inhibition mostly above about 10%, no sharp cut-off; inactive means mostly below about 6.7%;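 further: stock transfer was 7.5 nL into about 10 µL; 0% = median of vehicle wells and 100% = median of positive control wells; one replicate is shown; the record names a cut of 25% in any replicate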
Target sequence (Q9QR71 whole entry, looked up): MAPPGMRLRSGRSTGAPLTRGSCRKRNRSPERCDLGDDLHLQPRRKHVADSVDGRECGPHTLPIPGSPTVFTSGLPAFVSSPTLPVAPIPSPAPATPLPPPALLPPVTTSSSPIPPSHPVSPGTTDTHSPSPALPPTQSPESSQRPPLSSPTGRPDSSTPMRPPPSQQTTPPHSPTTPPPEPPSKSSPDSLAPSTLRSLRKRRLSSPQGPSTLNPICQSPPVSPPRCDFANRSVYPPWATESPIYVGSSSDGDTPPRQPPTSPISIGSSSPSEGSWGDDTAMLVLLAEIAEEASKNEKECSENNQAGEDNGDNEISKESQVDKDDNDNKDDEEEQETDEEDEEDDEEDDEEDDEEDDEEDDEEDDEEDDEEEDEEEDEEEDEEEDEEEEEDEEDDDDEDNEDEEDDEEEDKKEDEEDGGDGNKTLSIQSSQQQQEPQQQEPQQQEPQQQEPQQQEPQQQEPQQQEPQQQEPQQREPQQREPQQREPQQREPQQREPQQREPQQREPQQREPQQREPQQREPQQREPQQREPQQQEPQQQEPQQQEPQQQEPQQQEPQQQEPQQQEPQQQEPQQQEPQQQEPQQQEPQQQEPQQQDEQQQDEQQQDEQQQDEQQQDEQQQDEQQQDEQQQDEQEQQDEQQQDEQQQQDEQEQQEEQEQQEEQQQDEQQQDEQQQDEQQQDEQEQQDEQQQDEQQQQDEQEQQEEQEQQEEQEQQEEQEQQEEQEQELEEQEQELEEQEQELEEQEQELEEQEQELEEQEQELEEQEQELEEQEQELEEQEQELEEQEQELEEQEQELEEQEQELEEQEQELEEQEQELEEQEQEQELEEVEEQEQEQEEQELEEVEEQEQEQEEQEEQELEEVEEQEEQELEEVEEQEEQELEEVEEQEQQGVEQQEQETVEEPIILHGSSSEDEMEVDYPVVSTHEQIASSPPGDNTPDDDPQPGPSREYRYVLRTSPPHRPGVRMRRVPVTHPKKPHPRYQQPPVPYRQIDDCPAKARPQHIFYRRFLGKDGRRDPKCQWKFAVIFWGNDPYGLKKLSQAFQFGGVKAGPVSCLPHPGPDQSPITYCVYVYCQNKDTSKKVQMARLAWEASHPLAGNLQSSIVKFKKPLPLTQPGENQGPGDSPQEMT
Numbers without * were called inactive; ? = inconclusive; . = no result given.

SMILES	Vif TR-FRET	HNF4A DNA FP	LANA-H2A inh	B2AR ag	ALR H2O2 inh	Calb FLC	RanGTP-Impb inh
Cc1noc(C)c1C(=O)OCC(=O)NCCc1ccc(Cl)cc1	1%	0.6	-1.4	7	3	3	3.3
CC(=O)Nc1ccc(NC(=O)C(NS(=O)(=O)c2ccc3c(c2)OCCO3)C(C)C)cc1 (stereo not given)	5%	-1.2	-1.0	6	2	.	.
COC(=O)[C@H](C)NC(=O)NC(C)CCc1ccccc1 (stereo not given in full)	4%	0.7	-0.8	1	0	-1	-3.6
COc1cc(C(=S)N2CCOCC2)ccc1OC(=O)/C=C/c1ccco1	5%	-7.4	-0.5	22	.	-7	?
O=C(CSc1nccc(=O)[nH]1)N1CCCc2ccccc21	3%	-6.0	6.5	2	60	-7	1.1
C=CCn1c(SCC(=O)c2ccccc2)nnc1-c1cc2ccccc2o1	?	0.5	1.1	4	9	25	-0.4
CC(=O)Nc1cccc(NC(=O)COc2ccc3c(c2)CCC3)c1	0%	1.9	5.5	0	-3	.	.
O=C(Nc1ccccc1)/C(=C/c1ccc([N+](=O)[O-])cc1)NC(=O)c1ccccc1	.	-2.1	-4.1	3	-1	-1	2.2
Cc1ccc(OCc2cc(C(=O)N3CCC(c4ccccc4Cl)C3)no2)cc1C (stereo not given)	.	1.7	0.5	1	-2	5	2.6
Cc1nnc(C)n1/N=C/c1cc(Br)cc(Br)c1O	-2%	-3.4	-1.3	4	22	4	-12
COc1ccccc1OCCNC(=O)c1cc([N+](=O)[O-])cc([N+](=O)[O-])c1	-8%	0.5	-1.9	0	-56	32	-0.3
S=c1[nH]nc(COc2ccccc2)n1/N=C/c1ccccc1Cl	5%	-1.5	-9.6	8	.	-20	?
Cc1cc(C)c2oc(C(=O)N3CCN(Cc4ccccc4)CC3)cc(=O)c2c1	-1%	-1.8	4.2	-7	-4	6	-1.3
CC(C)(C)CNC(CO)C12CC3CC(CC(C3)C1)C2 (stereo not given)	-2%	-0.1	0.9	-6	-2	20	2.9
COc1ccc(C(=O)COC(=O)c2ccccc2O)c(OC)c1	18%	-8.1	10	-2	-3	.	.
COc1ccc(CCNC(=O)c2oc3ccc(S(=O)(=O)N4CCOCC4)cc3c2C)cc1OC	?	-3.3	-1.8	3	14	6	9.6
O=S(=O)(NC1CCCCC1)c1cccs1	.	-1.7	-5.2	-4	-14	-19	3.0
Cc1ccc(CNC(=O)C(=O)NCC2OCCN2C(=O)c2ccc3c(c2)OCO3)cc1 (stereo not given)	-4%	-1.5	-0.6	-2	-9	-6	-4.2
CCOC(=O)c1c(NC(=O)CS(=O)(=O)c2cn(CC)c3ccccc23)sc2c1CCCCC2	1%	-1.9	-4.6	21	-12	-1	2.1
Fc1ccc(C(c2nnnn2C2CCCC2)N(Cc2ccco2)CC2CCCO2)cc1 (stereo not given)	1%	4.4	2.3	-2	0	-7	-3.5

Reprinted from the part before: 5 compounds; new compounds follow.
SMILES	Vif TR-FRET	HNF4A DNA FP	LANA-H2A inh	B2AR ag	ALR H2O2 inh	Calb FLC	RanGTP-Impb inh
COc1ccc(CCNC(=O)c2oc3ccc(S(=O)(=O)N4CCOCC4)cc3c2C)cc1OC	?	-3.3	-1.8	3	14	6	9.6
O=S(=O)(NC1CCCCC1)c1cccs1	.	-1.7	-5.2	-4	-14	-19	3.0
Cc1ccc(CNC(=O)C(=O)NCC2OCCN2C(=O)c2ccc3c(c2)OCO3)cc1 (stereo not given)	-4%	-1.5	-0.6	-2	-9	-6	-4.2
CCOC(=O)c1c(NC(=O)CS(=O)(=O)c2cn(CC)c3ccccc23)sc2c1CCCCC2	1%	-1.9	-4.6	21	-12	-1	2.1
Fc1ccc(C(c2nnnn2C2CCCC2)N(Cc2ccco2)CC2CCCO2)cc1 (stereo not given)	1%	4.4	2.3	-2	0	-7	-3.5
CCOC(=O)N1CCN(C(=O)C2CCN(S(=O)(=O)c3cc(OC)ccc3OC)CC2)CC1	-14%	-2.7	3.9	-5	-3	?	-4.5
CC(C)C[C@H](NC(=O)N1CC(=O)Nc2ccccc21)C(=O)N1CCC(C(=O)O)CC1	.	0.9	2.8	-3	0	.	-1.0
CC(C)CC(=O)NC(=S)Nc1ccc(F)cc1F	-10%	3.4	-1.5	-5	-1	-4	-8.4
CC1(C)Cc2c(C#N)c(OCC(=O)c3ccc(Cl)cc3)nc(-c3ccoc3)c2CO1	9%	4.4	-0.6	-1	43	0	-2.2
Cc1onc(-c2ccccc2Cl)c1C(=O)N[C@@H](C)c1ccccc1	.	-3.7	-5.1	3	-13	11	-0.6
Cc1ccn2c(C(=O)CSc3ccccc3)c(C)nc2c1	-9%	2.9	-2.3	-6	-12	2	1.9
O=C(O)C1CC(=O)N(c2ccc(OCc3ccc(Cl)cc3Cl)cc2)C1 (stereo not given)	4%	-3.4	-4.7	4	40	-13	-0.7
COCCCNCCCCOc1ccccc1-c1ccccc1	-2%	2.5	1.2	12	-21	?	?
Cc1cccc(NS(=O)(=O)c2ccc3[nH]c(=O)cc(C(=O)O)c3c2)c1	-2%	-1.1	0.6	16	-8	-3	?
Cc1ccc(OCCOCCn2cnc3ccccc3c2=O)cc1C	3%	.	-6.1	.	1	2	-1.1
CCn1cc(C2=NC(CC(C)C)CO2)c2ccccc21 (stereo not given)	?	-2.6	-6.0	-4	26	-24	0.3
Cc1ccc(NC(=O)Cn2nnc(C(=O)NCCc3ccccc3)c2N)c(C)c1	2%	-2.4	-0.7	0	3	-3	4.0
O=S(=O)(c1ccc(F)cc1)c1snnc1-c1ccccc1	-3%	-4.0	-13	-1	13	-46	-2.6
CC(C)CC(=O)Nc1nc(-c2ccc(S(=O)(=O)N3CCOCC3)cc2)cs1	.	-0.1	.	5	.	-2	2.0
Cc1ccc(NCC(=O)Nc2ccc(Br)cc2)cc1C	.	1.0	0.0	-3	-5	4	1.2
Cc1ccc(-c2cn3cccc(C)c3n2)cc1	-2%	3.2	.	2	.	-1	-1.9
O=C1OCCC1Sc1nnc(-c2cccc(Br)c2)o1 (stereo not given)	-5%	-2.6	0.8	1	-4	?	-3.6
O=C(NC1CC1)C1=C[C@H](C2CCCCC2)C[C@H](OCc2ccc(CO)cc2)O1	9%	0.4	7.1	-15	.	-13	-1.3
CN(C)c1nc(N)c([N+](=O)[O-])c(N2CCCCCC2)n1	-5%	3.8	1.5	-10	2	-19	-0.7
Cc1ccccc1OCCC(=O)NCCc1ccc(S(N)(=O)=O)cc1	4%	1.1	-0.2	33	3	-12	-1.7
COc1cc2c(C(=O)N3CCN(C)CC3)c(C)oc2cc1Br	1%	3.4	0.9	0	-10	-24	-3.5
CCOc1ccc(C(=O)COc2ccc(NC(C)=O)cc2)cc1	6%	0.3	-8.9	0	2	-19	-0.9
CC1=NN(C(C#N)c2c(C)nn(Cc3ccccc3)c2C)C(C)(C)C1 (stereo not given)	-2%	3.5	4.6	6	-11	.	.
O=C(NNC(=S)NCc1ccc(Cl)cc1)c1ccc(Br)o1	-2%	1.8	-2.6	6	22	49	5.1
COc1cc(/C=C/C2=NC(=O)C(C)(C)O2)ccc1O	2%	.	5.5	.	99*	-17	-1.6
Cc1ccc(N(C(=O)c2ccn[nH]2)C(C(=O)NC2CCCC2)c2cccs2)cc1 (stereo not given)	3%	.	0.2	.	.	2	-3.9
COc1ccccc1S(=O)(=O)N1CCNC(=O)C1	0%	-7.9	2.1	-2	-7	.	.
Cc1cc(C)c(S(=O)(=O)N(CC(=O)N2CCCC2)C2CCCCC2)c(C)c1	0%	3.9	1.3	-2	-11	3	3.0
CCCCOc1ccc(S(N)(=O)=O)cc1	-4%	-2.1	1.3	-19	-2	-3	0.5
O=C(NC1CC(=O)N(c2ccccc2)C1)C1CC1 (stereo not given)	-10%	-1.2	4.4	-1	-15	-7	-1.6
CC(C)(C)c1nc2scc(-c3cccs3)c2c(=O)o1	-2%	3.0	-0.9	-5	8	2	7.2
C[C@@H](C(=O)Nc1cccnc1)n1c(=O)[nH]c2ccccc2c1=O	.	-2.5	3.7	-9	-1	.	2.1
COc1ccc(C(=O)NCCSc2ccc(C)cc2)cc1	-7%	2.6	-5.0	-6	-5	-15	0.3
Cc1onc(-c2ccccc2)c1-c1n[nH]c(=S)n1-c1ccc(C(=O)O)cc1	?	-0.2	2.5	8	89*	-18	0.6
COc1cc(NS(=O)(=O)c2ccc(Nc3nc(-c4ccccc4)cs3)cc2)nc(OC)n1	2%	-4.8	6.8	8	96*	33	0.1
COc1ccc(N2CCN(C(=O)c3ccc(CS(=O)(=O)c4ccc(OC)cc4)o3)CC2)cc1	3%	1.3	-0.3	-5	-21	-2	0.3
CC(C(=O)Nc1cccc(S(=O)(=O)N2CCOCC2)c1)N1CCN(C)CC1 (stereo not given)	3%	-4.8	-2.2	-10	-2	3	-0.2
CN(C)C(CNC(=O)c1cccnc1Sc1ccccc1)c1ccco1 (stereo not given)	64µM*	-5.3	2.7	-6	-15	-6	0.1
CCOC(=O)C(C)Sc1nnc(-c2ccccc2O)n1Cc1ccccc1 (stereo not given)	1%	-1.2	0.3	6	.	7	-5.3
CCN(CC)c1ccc(C(=O)OCC(=O)Nc2ccccc2-c2ccccc2)cc1	0%	1.5	2.3	1	0	?	2.5
CC(=O)Nc1nc(N2C(=O)c3ccccc3C2=O)n(-c2ccccc2)n1	2%	-0.6	6.1	1	0	7	-0.8
CCC(C)NC(=O)C1CCN(S(=O)(=O)c2cccc3nonc23)CC1 (stereo not given)	.	1.1	6.4	10	-6	-7	0.5
COc1ccc(N/C=C(\C#N)c2nc3ccccc3n2C)c(OC)c1	4%	-4.1	-1.7	24	-8	1	4.9
CCOc1ccccc1NC(=O)n1ncc2c(C)cccc21	1%	2.0	-0.1	0	.	-3	1.8
CC(=O)Nc1c(-c2cc(=O)oc3cc(C)ccc23)oc2ccccc12	-8%	2.6	.	-4	.	1	7.7
CCc1nc2ccccc2c(C(=O)NCc2ccccc2)c1C	9%	-5.5	-4.6	7	0	-10	-1.7
CC(=O)c1ccc(OCc2cc(C(=O)N3CCOCC3)no2)cc1	.	0.5	-3.7	8	-5	-10	7.9
O=C1c2ccccc2NC(c2ccccc2O)N1O (stereo not given)	0%	-1.0	2.9	-10	91*	-14	-0.4
COc1ccccc1C(=O)Nc1ccc2c(c1)C(=O)NC2=O	.	-1.2	-1.0	-8	2	-3	1.6
CC1CCCC(C)N1Cc1cn2ccccc2n1 (stereo not given)	29%	1.5	-1.2	-4	-5	0	2.1
Cc1ccccc1NC(=O)Cn1c(C)nc2ccc(NC(=O)C3CC3)cc2c1=O	3%	-0.6	1.1	-6	-14	7	1.0
CCOc1ccc(-c2noc(CCC(=O)NCCc3ccccc3)n2)cc1OC	-4%	-0.2	5.0	3	-1	-1	6.0
CCCn1c(=O)n(N)c2ccccc21	22%	3.2	-1.3	-4	-13	-10	-4.7
CCCc1n[nH]c2c1C(=O)C(C(=O)OC)C(C)(C)C2 (stereo not given)	66%	-0.1	3.7	-5	-8	-10	-3.4

This is a random part of the collection; overall some 6.3% were active at least once.
